Compound activity as filed in PubChem BioAssay.
Vaccinia inh = blocks a specific stage of Vaccinia orthopoxvirus infection | activity change (mCherry), % (test concentration not listed) | Vaccinia-infected cells, mCherry/Venus stage reporter fluorescence; active compounds read low; some inactives read as strong as hits | 89,000 tested, 0.01% active | AID 1053133;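 active = mCherry past -33% and 40 or more points under the early reporter, replicates agreeing; inconclusive = past -33% without that gap or agreement; tested in A549 cells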;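 also: scaled between vehicle wells and reference inhibitor wells; 23 nL library stock went into each well; one replicate is shown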
Vaccinia inh Venus = recorded beside Vaccinia inh, whose call it bears; activity change (Venus), %; measured here: Venus reporter, other viral stage;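 negative = less Venus signal; first of two replicates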
Active calls of the source: *; u = inconclusive; x = no result given. Only part of the results is shown; rates above refer to the full screens.

SMILES	Vaccinia inh	Vaccinia inh Venus
CC(=O)N1[C@@H](CO)[C@@H](c2ccccc2)C12CN(C(=O)c1ccc3c(c1)OCO3)C2	7	4
Cc1ccc(-c2ccccc2[C@@H]2[C@@H](CO)N(C(=O)NC3CCCC3)[C@H]2C#N)cc1	u	x
C[C@H](NC(=O)C[C@@H]1CC[C@@H]2[C@H](COc3ccc(NC(=O)C4CCOCC4)cc3C(=O)N2C)O1)c1ccccc1	16	10
C[C@H](CO)N1C[C@H](C)[C@@H](CN(C)Cc2ccccc2)Oc2ccc(NC(=O)Nc3ccc(F)cc3)cc2CC1=O	u	x
C[C@@H]1CN([C@H](C)CO)C(=O)c2cccc(NC(=O)C3CCOCC3)c2O[C@H]1CN(C)S(=O)(=O)c1ccc(Cl)cc1	11	12
C[C@H](CO)N1C[C@H](C)[C@H](CN(C)S(=O)(=O)c2ccccc2)OCCCC[C@H](C)Oc2ccc(NS(=O)(=O)c3cccs3)cc2C1=O	-33	-22
O=C(c1ccccn1)N1C[C@H]2[C@@H](c3ccccc31)[C@@H](CO)N2C(=O)Nc1ccccc1F	4	3
CN1CCCCN2[C@H](CO)[C@@H](c3ccc(/C=C/c4ccccc4)cc3)[C@H]2C1	-8	-11
C[C@H]1CN([C@@H](C)CO)C(=O)Cc2cc(NC(=O)Nc3ccc4c(c3)OCO4)ccc2O[C@@H]1CN(C)C(=O)Nc1ccc(C(F)(F)F)cc1	3	12
COc1ccc(CN(C)C[C@H]2Oc3c(NC(=O)NC4CCCCC4)cccc3C(=O)N([C@H](C)CO)C[C@@H]2C)cc1	-21	-17
CNC(=O)C[C@@H]1CC[C@H]2[C@H](COc3ccc(NC(=O)c4cccc(OC)c4)cc3C(=O)N2C)O1	-9	-6
COCC(=O)Nc1ccc2c(c1)C(=O)N(C)[C@H]1CC[C@H](CC(=O)Nc3cccc(C)c3)O[C@@H]1CO2	1	-2
COc1ccc(NC(=O)N2C[C@@H](O)COC[C@@H]3O[C@H](CC(=O)NCc4ccccc4OC)CC[C@H]32)cc1	14	8
CNC(=O)C[C@H]1CC[C@H]2[C@@H](COc3ccc(NS(=O)(=O)c4cccc(F)c4)cc3C(=O)N2C)O1	9	12
COc1ccccc1-c1cnc2c(c1)C(=O)N([C@H](C)CO)C[C@@H](C)[C@H](CN(C)Cc1cncnc1)O2	8	2
C[C@H]1CN([C@@H](C)CO)C(=O)Cc2cc(NS(=O)(=O)c3cccs3)ccc2O[C@@H]1CN(C)C(=O)Nc1ccc2c(c1)OCO2	-12	3
COc1cccc(S(=O)(=O)N2C[C@@H](O)COC[C@@H]3O[C@H](CC(=O)N4CCCCC4)CC[C@H]32)c1	10	6
COc1ccc(S(=O)(=O)Nc2ccc3c(c2)C(=O)N([C@H](C)CO)C[C@H](C)[C@H](CN(C)C(=O)NC2CCCCC2)OCCCC[C@@H](C)O3)cc1	11	3
COc1ccc(C#Cc2ccc3c(c2)[C@@H]2[C@@H](CCN2C(=O)c2ccccc2F)[C@@H](CO)N3)cc1	9	6
N#C[C@H]1[C@H](c2ccccc2-c2cccc(F)c2)[C@@H](CO)N1C(=O)NC1CCCCC1	-18	-10
CO[C@H]1CN(C)C(=O)c2ccc(NC(=O)C3CCOCC3)cc2OC[C@H](C)N(Cc2cccnc2)C[C@H]1C	8	2
Cc1noc(C)c1S(=O)(=O)Nc1ccc2c(c1)C(=O)N([C@@H](C)CO)C[C@H](C)[C@H](CN(C)S(=O)(=O)c1ccc(F)cc1)OCCCC[C@H](C)O2	u	x
CCCC(=O)Nc1ccc2c(c1)C(=O)N(C)C[C@H](OC)[C@H](C)CN(C(=O)CN(C)C)[C@H](C)CO2	2	-6
CCC(=O)N1C[C@@H](C)[C@H](OC)CN(C)C(=O)c2ccc(NC(=O)c3cnccn3)cc2OC[C@H]1C	14	9
C[C@H]1CN([C@@H](C)CO)C(=O)c2cc(C#CC3CC3)cnc2O[C@@H]1CN(C)C(=O)Cc1ccccn1	21	0

Following part.
SMILES	Vaccinia inh	Vaccinia inh Venus
O=C(C[C@H]1CC[C@@H]2[C@H](COC[C@@H](O)CN2C(=O)c2ccncc2)O1)NC1CCC1	9	8
COc1ccc(NC(=O)Nc2cccc3c2O[C@H](CN(C)S(=O)(=O)c2ccc(OC)cc2)[C@@H](C)CN([C@@H](C)CO)C3=O)cc1	-10	-12
COCC(=O)NC[C@@H]1[C@H](c2ccc(C3=CCCC3)cc2)[C@H](CO)N1C(=O)C1CC1	7	12
C[C@H]1CN([C@@H](C)CO)C(=O)Cc2cc(NC(=O)Nc3ccccc3)ccc2O[C@@H]1CN(C)Cc1ccc2c(c1)OCO2	-6	-7
COc1ccccc1-c1ccc2c(c1)[C@@H]1[C@@H](CCN1C(=O)C1CCC1)[C@H](CO)N2	u	x
COc1ccc(NC(=O)N2C[C@@H]3N[C@H](C2)C3c2ccc(-c3cccc(OC)c3)cc2)cc1 (stereo partly specified)	u	-29
COc1cccc(-c2ccc3c(c2)[C@H]2[C@H](CCN2C(=O)C2CC2)[C@@H](CO)N3)c1	1	-8
CN1c2ccc(-c3ccc(F)cc3)cc2[C@@H]2[C@@H](CCN2C(=O)c2ccncc2)[C@H]1CO	6	11
C[C@H](CO)N1C[C@H](C)[C@H](CN(C)S(=O)(=O)c2cn(C)cn2)Oc2c(NC(=O)c3ccncc3)cccc2C1=O	21	14
C[C@H](CO)N1C[C@H](C)[C@H](CN(C)Cc2ccc3c(c2)OCCN3C)OCc2ccccc2-c2ccccc2C1=O	3	5
COCC(=O)N(C)C[C@@H]1Oc2cc(-c3ccncc3)ccc2S(=O)(=O)N([C@@H](C)CO)C[C@H]1C	7	-5
C[C@@H]1CN([C@H](C)CO)C(=O)c2cccc(NC(=O)c3cnccn3)c2O[C@@H]1CN(C)C(=O)Nc1ccc(F)cc1	-3	6
C[C@H]1CCCCO[C@H](CN(C)S(=O)(=O)c2ccccc2)[C@@H](C)CN([C@@H](C)CO)C(=O)c2cc(NC(=O)Nc3cccc4ccccc34)ccc2O1	7	3
C[C@@H]1CN([C@H](C)CO)C(=O)c2cc(NC(=O)c3ccncc3)ccc2O[C@H]1CN(C)S(=O)(=O)c1cccs1	21	18
CO[C@@H]1CN(C)C(=O)c2cc(NC(=O)c3nc4ccccc4s3)ccc2OC[C@@H](C)N(Cc2cncnc2)C[C@@H]1C	-10	-1
O=C(C1CCOCC1)N1[C@H](CO)[C@@H](c2ccccc2)C12CN(Cc1cccnc1)C2	10	10
C[C@H](CO)N1C[C@H](C)[C@H](CN(C)S(C)(=O)=O)Oc2ccc(NC(=O)C3CCCCC3)cc2C1=O	-1	7
CN(C)C(=O)C[C@H]1CC[C@H]2[C@@H](COC[C@@H](O)CN2C(=O)C2CC2)O1	8	10
O=C(Nc1cccc(Cl)c1)N[C@@H]1CC[C@@H](CCNC(=O)C2CCC2)O[C@@H]1CO	4	7
CCCNC(=O)N(C)C[C@H]1Oc2cc(C3=CCCC3)ccc2S(=O)(=O)N([C@@H](C)CO)C[C@@H]1C	-3	0
CC(C)NC(=O)N(C)C[C@@H]1Oc2ccc(NS(=O)(=O)c3ccc(F)cc3)cc2CC(=O)N([C@H](C)CO)C[C@@H]1C	0	1
CCC(=O)N(C)C[C@H]1Oc2ncc(-c3ccc(C)cc3)cc2C(=O)N([C@H](C)CO)C[C@@H]1C	6	5
O=C(Cc1ccccn1)N[C@H]1CC[C@@H](CC(=O)N2CCCCC2)O[C@@H]1CO	15	19
Cc1cccc(S(=O)(=O)N2CCCCN3[C@H](CO)[C@@H](c4ccc(-c5cccnc5)cc4)[C@H]3C2)c1	-25	-33
COc1ccccc1-c1cnc2c(c1)C(=O)N([C@@H](C)CO)C[C@@H](C)[C@@H](CN(C)Cc1ccc(F)cc1)O2	u	x

Next section:
SMILES	Vaccinia inh	Vaccinia inh Venus
CN1C[C@H]2[C@@H](c3ccccc31)[C@H](CO)N2S(=O)(=O)c1ccccc1	17	7
Cc1ccc(-c2ccc3c(c2)O[C@H](CN(C)C)[C@@H](C)CN([C@@H](C)CO)S3(=O)=O)cc1	-29	-24
CN1C(=O)c2cc(NC(=O)c3cccc(F)c3)ccc2OC[C@H]2O[C@H](CC(=O)NCC3CCCCC3)CC[C@@H]21	u	x
N#C[C@@H]1[C@@H](c2ccccc2-c2ccc(F)cc2)[C@H](CO)N1C(=O)Cc1ccccc1	u	x
CCCNC(=O)C[C@H]1C[C@@H]2c3cc(NC(=O)C4CCOCC4)ccc3O[C@@H]2[C@H](CO)O1	9	5
Cc1ccc(S(=O)(=O)N(C)C[C@H]2Oc3c(NS(=O)(=O)c4ccc(Cl)cc4)cccc3C(=O)N([C@@H](C)CO)C[C@H]2C)cc1	-18	-17
Cc1ccc(S(=O)(=O)Nc2cccc3c2O[C@@H](CN(C)C(=O)Nc2ccc(C(F)(F)F)cc2)[C@H](C)CN([C@H](C)CO)C3=O)cc1	0	-5
COc1ccc(S(=O)(=O)Nc2ccc3c(c2)C(=O)N([C@H](C)CO)C[C@H](C)[C@H](CN(C)S(=O)(=O)c2ccc(Cl)cc2)OCCCC[C@H](C)O3)cc1	u	x
C[C@H](CO)N1C[C@H](C)[C@H](CN(C)Cc2cncnc2)Oc2ncc(C#CC(C)(C)O)cc2C1=O	13	6
C[C@@H]1CCCCO[C@H](CN(C)S(=O)(=O)c2ccccc2)[C@H](C)CN([C@H](C)CO)C(=O)c2cc(NC(=O)Nc3ccc(C(F)(F)F)cc3)ccc2O1	2	-6
C[C@@H]1CN([C@H](C)CO)C(=O)c2cc(NS(C)(=O)=O)ccc2O[C@@H](C)CCCCO[C@@H]1CN(C)C(=O)c1ccccc1	10	9
C[C@H]1CN([C@@H](C)CO)C(=O)c2cc(C#CCC3CCCC3)cnc2O[C@@H]1CN(C)C(=O)c1cnccn1	7	3
COc1ccccc1-c1ccc2c(c1)O[C@@H](CN(C)C(=O)c1ccccc1)[C@H](C)CN([C@@H](C)CO)S2(=O)=O	-35	-46
C[C@H]1CN([C@@H](C)CO)S(=O)(=O)c2ccc(C#Cc3ccccn3)cc2O[C@@H]1CN(C)Cc1cccc(F)c1	-10	-15
C[C@H](CO)N1C[C@H](C)[C@@H](CN(C)C(=O)Nc2ccc3c(c2)OCO3)Oc2ncc(-c3cncnc3)cc2C1=O	24	21
Cc1ccccc1-c1ccc([C@H]2[C@@H](CO)N3CCCCN(S(=O)(=O)c4cn(C)cn4)C[C@@H]23)cc1	6	-4
C[C@@H]1CN([C@@H](C)CO)C(=O)c2cc(NC(=O)Nc3ccc(C(F)(F)F)cc3)ccc2O[C@@H](C)CCCCO[C@H]1CN(C)C(=O)Cc1ccccc1	-7	10
COc1cccc(S(=O)(=O)N2CCCCN3[C@H](CO)[C@H](c4ccc(C#CC5CC5)cc4)[C@H]3C2)c1	-24	-26
C[C@H]1CN([C@@H](C)CO)C(=O)c2cc(C#CC3(O)CCCC3)cnc2O[C@H]1CN(C)C	16	11
COc1ccccc1NC(=O)N[C@@H]1CC[C@@H](CCNS(=O)(=O)c2ccc(Cl)cc2)O[C@H]1CO	4	7
C[C@@H]1CN([C@H](C)CO)C(=O)Cc2cc(NC(=O)c3ccncc3)ccc2O[C@@H]1CN(C)S(=O)(=O)c1ccccc1	-1	0
C[C@@H]1CN([C@H](C)CO)S(=O)(=O)c2ccc(-c3ccncc3)cc2O[C@H]1CN(C)Cc1cncnc1	15	0
CCO[C@H]1OC(C(=O)NCc2ccccc2)=C[C@@H](C(C)(C)C)[C@@H]1CCCO	13	0
C[C@H]1CN([C@@H](C)CO)C(=O)c2cccc(NC(=O)c3ccc(-c4nccs4)cc3)c2O[C@H]1CN(C)Cc1ccc(C(=O)O)cc1	12	4
C[C@H]1CN([C@@H](C)CO)C(=O)c2cc(NS(=O)(=O)c3ccc(Cl)cc3)ccc2O[C@H]1CN(C)S(=O)(=O)c1ccc(Cl)cc1	-18	-8
COc1ccc2c3c(n(C)c2c1)[C@@H](CO)N(S(C)(=O)=O)CC31CN(C(=O)c2ccccn2)C1	-2	-3
C[C@H]1CN([C@@H](C)CO)C(=O)c2cc(/C=C/c3ccccc3)cnc2O[C@@H]1CN(C)C(=O)NC1CCCCC1	-26	-19
C[C@H]1CN([C@@H](C)CO)C(=O)Cc2cc(NS(C)(=O)=O)ccc2O[C@H]1CN(C)C(=O)Nc1ccc(C(F)(F)F)cc1	13	16
C[C@H](CO)N1C[C@H](C)[C@@H](CN(C)C(=O)c2ccc(F)cc2)Oc2cc(Br)ccc2S1(=O)=O	-14	-2

Arranged by number of heavy atoms (smallest number first): eleven of the compounds above
SMILES	Vaccinia inh	Vaccinia inh Venus
CN1C[C@H]2[C@@H](c3ccccc31)[C@H](CO)N2S(=O)(=O)c1ccccc1	17	7
CCO[C@H]1OC(C(=O)NCc2ccccc2)=C[C@@H](C(C)(C)C)[C@@H]1CCCO	13	0
Cc1ccc(-c2ccc3c(c2)O[C@H](CN(C)C)[C@@H](C)CN([C@@H](C)CO)S3(=O)=O)cc1	-29	-24
C[C@H](CO)N1C[C@H](C)[C@H](CN(C)Cc2cncnc2)Oc2ncc(C#CC(C)(C)O)cc2C1=O	13	6
C[C@@H]1CN([C@H](C)CO)S(=O)(=O)c2ccc(-c3ccncc3)cc2O[C@H]1CN(C)Cc1cncnc1	15	0
C[C@H]1CN([C@@H](C)CO)C(=O)c2cc(C#CCC3CCCC3)cnc2O[C@@H]1CN(C)C(=O)c1cnccn1	7	3
C[C@@H]1CN([C@H](C)CO)C(=O)Cc2cc(NC(=O)c3ccncc3)ccc2O[C@@H]1CN(C)S(=O)(=O)c1ccccc1	-1	0
C[C@@H]1CN([C@H](C)CO)C(=O)c2cc(NS(C)(=O)=O)ccc2O[C@@H](C)CCCCO[C@@H]1CN(C)C(=O)c1ccccc1	10	9
C[C@H]1CN([C@@H](C)CO)C(=O)c2cc(NS(=O)(=O)c3ccc(Cl)cc3)ccc2O[C@H]1CN(C)S(=O)(=O)c1ccc(Cl)cc1	-18	-8
Cc1ccc(S(=O)(=O)Nc2cccc3c2O[C@@H](CN(C)C(=O)Nc2ccc(C(F)(F)F)cc2)[C@H](C)CN([C@H](C)CO)C3=O)cc1	0	-5
C[C@@H]1CN([C@@H](C)CO)C(=O)c2cc(NC(=O)Nc3ccc(C(F)(F)F)cc3)ccc2O[C@@H](C)CCCCO[C@H]1CN(C)C(=O)Cc1ccccc1	-7	10
